# Bioassay records: PubChem, ICCB-Longwood Screening Facility, Harvard Medical School
# AID504770 = growth inhibitors of E. coli YBA685 in a screen for V. cholerae RctB (chromosome II replication) inhibitors; E. coli YBA685 rctB-dependent plasmid, OD600 growth, 3 h; stronger effect = lower value; z-score (no concentration beside the values); actives 0.27% (n = 130,000); AID 504770;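 active = z-score under -2 on both plates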;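 note: wells of about 30 µL received 100 nL stock; score is relative to mean and SD of the test wells; the first replicate is given; strong numbers were not always called active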
# Ba CapD inh = inhibitors of Bacillus anthracis CapD enzyme; purified CapD enzyme, fluorescence intensity read-out; stronger effect = lower value; some hits fall short of the stated cut; z-score (no concentration beside the values); actives 0.23% (n = 140,000); AID 492967;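 active = z-score under -4 in either of two replicates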;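 note: stock transfer was 100 nL into about 40 µL; score is relative to mean and spread of the plate; one replicate is shown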
# * = called active by the depositor; / = not tested or not shown; & = joins results of further samples.
# Start of the data: the first 4 entries (preview)
structure	AID504770	Ba CapD inh
COc1ccc(C(=O)CSc2nccn2C)cc1	-0.3	/
O=S(=O)(c1cc(Br)c(Cl)s1)N1CCSCC1	/	-0.7
CN(C)CCN(Cc1ccccc1)Cc1ccc(O)cc1	-0.3	-0.46
COc1cc(C=C2C(=O)NC(=O)NC2=O)cc(Cl)c1OCc1ccccc1Cl	/	-0.15

# Main list, from the first entry:
structure	AID504770	Ba CapD inh
COc1ccc(C(=O)CSc2nccn2C)cc1	-0.3	/
O=S(=O)(c1cc(Br)c(Cl)s1)N1CCSCC1	/	-0.7
CN(C)CCN(Cc1ccccc1)Cc1ccc(O)cc1	-0.3	-0.46
COc1cc(C=C2C(=O)NC(=O)NC2=O)cc(Cl)c1OCc1ccccc1Cl	/	-0.15
Cc1c(C(=O)NCCc2ccccc2)oc2ccccc12	0.45	/
CCCn1c2ccccc2c2cnn(CC(=O)N3CCCc4ccccc43)c(=O)c21	0.2	6.6
CCOc1ccc(CCNC(=O)Cc2ncn[nH]2)cc1OCC	-0.35	0.22
O=C(O)CN1CC(=O)Oc2ccccc21	0.4	0.11
COc1cccc(-n2c(=S)sc3c(=O)[nH]c(SCC(=O)N4CCCC4)nc32)c1	/	0.79
COc1ccc(N=C2CCCN2CC(N)=O)cc1	-0.1	-0.23
O=[N+]([O-])c1cccnc1Sc1ccccc1	/	-1.1
COC(=O)c1sc(SC)c(C#N)c1-c1ccc(C)cc1	/	0.66
O=c1oc(-c2cccc(Cl)c2)nc2c1cnn2-c1ccccc1	1.4	38
Cc1ccc(-c2n[nH]c(=O)c3ccccc23)cc1S(=O)(=O)N(C)C1CCCCC1	1.9	0.46
CS(=O)(=O)c1cccc(S(=O)(=O)NCc2ccco2)c1	-0.45	/
OC(c1ccccc1)(c1ccccc1)C1CCCN1Cc1ccccc1 (centres undefined)	-0.4	0.14
COc1nc(-c2ccccc2)cc(-c2ccc(Cl)cc2)c1C#N	/	1.6
O=C(c1ccc(N2CCOCC2)nc1)N1CCCCCC1	-0.85	8.2
Cc1ccc(S(=O)(=O)N/N=C/c2ccc([N+](=O)[O-])cc2)cc1	/	-0.93
Cc1ccnc(SCC(=O)NC(c2ccccc2)c2ccccc2)n1	-0.8	-0.085
CCN(CC)C(=O)c1cc(-c2ccco2)on1	-1.6	0.83
COc1ccc(Cl)cc1NC(N)=S	/	0.88
OC(CN1CCC(c2c[nH]c3ccccc23)CC1)C(F)(F)F (centres undefined)	-0.2	-0.31
CCC(CO)N1CNC(=S)NC1 (centres undefined)	/	-0.09
CC(C)NC(=S)NC(=O)c1cccnc1	-0.85	-0.23
O=C(O)C1CCC(=O)N1Cc1ccc(F)cc1 (centres undefined)	-0.85	/
O=S(=O)(NC1=NCCCCC1)c1ccc(F)cc1	-0.6	/
Cc1cc(/C=N/NC(=O)Cc2csc(-c3ccccc3)n2)cc(C)c1O	/	-0.76
Cn1c(=O)c2c(-c3ccccc3Br)n(CC(N)=O)cc2n(C)c1=O	0.45	2.6
Nc1ccc(I)cc1C(=O)O	-0.75	0.28
O=C1NCC(COc2ccc3ccccc3c2)O1 (centres undefined)	1.2	1.4
Cc1sc(NC(=O)C2CCCCC2)c(C(N)=O)c1C	-0.7	0.7
Cn1c(CCNC(=O)C(C)(C)C)nc2ccccc21	-1	-0.25
CC(C)N1C(=O)CCC1C(=O)O (centres undefined)	-0.5	-0.28
Cc1n[nH]c(C)c1Sc1nccc(-c2cccnc2)n1	-1.4	-0.3
O=C1c2[nH]nc(-c3ccccc3)c2C(c2ccc(Cl)cc2)N1c1cccc(C(F)(F)F)c1 (centres undefined)	/	14
COc1ccc(N2CCN(Cc3nnnn3C3CCCCC3)CC2)cc1	0.05	/
C/C(=N\NC(N)=S)c1cccnc1	1	-0.52
CCOc1cc(C=N/C(C#N)=C(\N)C#N)ccc1O	/	-1.6
O=c1[nH]c(SCc2ccc(C(F)(F)F)cc2)nc2c1cnn2-c1ccccc1	-0.55	0.02
CCCN(CCC)C1=CC(=O)C(C(C)(C)C)=CC1=O	1.6	/
N#CCSc1nc2ccccc2c(=O)n1CCCC(=O)NCc1ccco1	0.35	-1.3
CS(=O)(=O)c1cnc(-c2ccc(O)cc2)nc1-c1cccc(C(F)(F)F)c1	/	-0.71
Cc1ccc(CNC(=O)c2ccc3c(c2)NC(=O)CS3)n1C	-0.3	/
COc1ccc(-c2nnc3ccc4ccccc4n23)cc1OC	/	-0.27
O=C(N/N=C/c1ccc(O)c(O)c1O)c1cccc(S(=O)(=O)Nc2ccccc2Cl)c1	1.4	/
CCOC(=O)c1c(N)sc(C)c1-c1ccccc1	/	-0.85
O=C(CSc1ccccc1)OCc1nnc(C2COc3ccccc3O2)o1 (centres undefined)	-0.4	/

# Another view of some results above:
# Order of values – AID504770 | Ba CapD inh
> COc1ccc(N2CCN(Cc3nnnn3C3CCCCC3)CC2)cc1
    0.05 | /
> C/C(=N\NC(N)=S)c1cccnc1
    1 | -0.52
> CCOc1cc(C=N/C(C#N)=C(\N)C#N)ccc1O
    / | -1.6
> O=c1[nH]c(SCc2ccc(C(F)(F)F)cc2)nc2c1cnn2-c1ccccc1
    -0.55 | 0.02
> CCCN(CCC)C1=CC(=O)C(C(C)(C)C)=CC1=O
    1.6 | /

# (more compounds)
structure	AID504770	Ba CapD inh
CCOc1ccc(-n2nc3ccc(NC(=O)c4ccc5c(c4)OCCO5)cc3n2)cc1	/	6.3
O=C1CSC(c2cc3c(cc2Br)OCO3)N1c1ccc(F)cc1 (centres undefined)	/	-0.57
N#Cc1oc2ccccc2c1N	-1	/
Cc1nnc(NC(N)=S)s1	/	-0.14
COC(=O)c1c(N)sc2c1C(C(=O)OC)CC2 (centres undefined)	0.75	-0.07
Cc1ccc2c(c1)C(c1ccccc1)=NCC(=O)N2	/	-0.35
NC(=O)CSc1nnc(-c2ccc(C(F)(F)F)cn2)s1	-0.4	0.55
CCc1nc2sc(C(=O)Nc3ccc(OC(F)(F)F)cc3)c(N)c2cc1C	0.15	6.4
Cc1ccc(NC(=O)C2CC2(c2ccccc2)c2ccccc2)cc1C (centres undefined)	/	-0.14
CCN1CCN(C(=O)c2csc3c2CCCCC3)CC1	0.15	0.34
CC(=O)C1=C(C)NC(C)=C(C(C)=O)C1c1cccc([N+](=O)[O-])c1	/	-0.78
CCc1ccc(NC2=NS(=O)(=O)c3ccccc32)cc1	-0.3	0.23
Cc1ccc2c(Cl)c(C(=O)Nc3ccc(S(=O)(=O)Nc4cc(C)nc(C)n4)cc3)sc2c1	/	0.83
O=C(O)C1(NS(=O)(=O)c2ccc(Cl)cc2)CCCCC1	0.9	-1.5
CC1=C(C#N)c2nc(N)c(C#N)c(C)c2/C1=C\c1ccc(Br)o1	/	0.12
Cc1nc2c(C(=O)N3CCN(c4ccccn4)CC3)cnn2c(C)c1Cc1ccccc1Br	/	0.34
Cc1ccc2[nH]c(=S)n(-c3ccc(S(=O)(=O)N4CCCCC4)cc3)c(=O)c2c1	/	3.3
O=C(CCCc1nc(-c2ccccc2)no1)NC1CCCC1	-0.5	-0.75
COc1ccc(-n2c(=O)c(C#N)cc3c(=O)n4ccccc4nc32)cc1Cl	-0.7	0.45
Cn1nc(-c2ccc(/C=C(\C#N)S(C)(=O)=O)s2)cc1C(F)(F)F	1.3	-0.46
COC(=O)c1c(C(C)(C)C)oc2c1cc(NS(=O)(=O)c1ccc(Cl)cc1)c1ccccc12	/	0.49
Cc1c(C)c(C)c(C#CCOC2CCCCO2)c(C)c1C (centres undefined)	-0.2	-0.09
Cn1nc(NC(=O)/C=C/c2ccc(OC(F)(F)F)cc2)c2c(F)cccc21	-0.8	-1.4
COC(=O)c1cc(N2C(=O)/C(=C/c3ccc(-c4cc(Cl)ccc4Cl)o3)C=C2c2ccccc2)ccc1Cl	/	0.62

# Next section.
SMILES | AID504770 | Ba CapD inh
CCOc1ccsc1C(=O)NNC(=O)OCCc1c[nH]c2ccccc12 | / | 0.48
CC(=O)OC1COC(Oc2ccc(C(C)(C)C)cc2)C(OC(C)=O)C1OC(C)=O (centres undefined) | -1.1 | /
O=c1nc(-c2ccccc2)c2cc(Cl)ccc2[nH]1 | -0.45&-0.35 | -0.61
COC(=O)C1=C(C)NC(C)=C(C(=O)OC)C1c1ccc(C(C)C)cc1 | -0.05 | -0.29
O=C(O)CCN1C(=O)CSc2ccccc21 | -0.45 | /
Cc1cc(OC(C)C(=O)N2CCN(Cc3ccccc3)CC2)nc(C(C)C)n1 (centres undefined) | -0.05 | /
COC(=O)c1cc(Nc2ncnc3c2cnn3-c2cccc(C)c2)cc(C(=O)OC)c1 | / | 0.12
CCc1nc(SCC(=O)OC)n[nH]1 | -0.1 | 0.58
NS(=O)(=O)c1ccc(NC(=O)/C=C/C(=O)O)cc1 | 0.65 | /
CC(C)n1c2ccccc2c2nnc(SCC(=O)NCc3ccc4c(c3)OCO4)nc21 | -0.25 | -1.8
N#Cc1c(F)cccc1NC1CCN(Cc2ccccc2)CC1 | / | 44
COc1ccc(NC2CCN(C3CC(=O)N(c4ccc(Cl)cc4)C3=O)CC2)cc1 (centres undefined) | 0.1 | -0.1
CC1(C)OC(C)(C)/C(=C\c2ccc(F)cc2)C1=O | 1.1 | /
COc1cc(=O)oc2ccccc12 | -1.2 | -0.54
CCOc1ccc(-c2cc(NC(=O)Cn3ncc4c(=O)oc5ccc(C)cc5c43)on2)cc1 | -0.15 | -0.28
NC(=O)c1c(/N=C/C(Br)=C/c2ccccc2)sc2c1CCC2 | -1.1 | 0.015
N#CC1=C(N)OC2=C(CCCC2=O)C1c1ccccc1C(F)(F)F (centres undefined) | 0.4 | 0.34
CC(C)COC(=O)c1ccc(N2C(=O)C3C4c5ccccc5C(c5ccccc54)C3C2=O)cc1 (centres undefined) | / | -0.42
Cn1c(SCc2ccccc2Cl)nnc1C(O)C(O)c1nnc(SCc2ccccc2Cl)n1C (centres undefined) | 0.15 | 0.05
COc1ccc(N2C(=O)C(N3C(=O)c4ccccc4C3=O)C2c2ccc(F)cc2)cc1 (centres undefined) | / | -0.4
CN(C(=O)c1cccc(S(=O)(=O)N(C)C)c1)c1ccccc1 | -0.85 | -0.17
c1ccc(CN(Cc2ccccc2)c2ncnc3nc[nH]c23)cc1 | 0 | 0.11
CCc1ccc(NC(=O)NC2CCN(C(C)C)CC2)cc1 | -0.65 | 1
Cc1cccc(N(C)c2nc3ccc(Cl)cc3n3cnnc23)c1 | 1.6 | -1.8
COc1cc(-c2nnc(COC(=O)CSc3ccc4ccccc4c3)o2)cc(OC)c1OC | -0.45 | /
O=C(Cc1n[nH]c(=O)c2ccccc12)OCCOc1cccc(Cl)c1 | -0.15 | /
O=C(Cn1c2c(c(-c3ccccc3Cl)cc1=O)CCC2)NC1CCCC1 | -1.4 | 41
O=C(O)C(Sc1ncn[nH]1)c1ccccc1 (centres undefined) | -0.2 | 1
CCOC(=O)C1=C(C)NC2=C(C(=O)C(C(=O)OCC)C(c3ccco3)C2)C1c1ccc2c(c1)OCO2 (centres undefined) | 0.1 | 11
O=C1c2ccccc2CCc2sccc21 | 1.7 | 0.12
CCC(=O)Nc1cc(-c2nc3cccnc3s2)ccc1C | -0.7 | 3.5
CC(C)(C)C(=O)/C=C/Nc1ccccc1C(N)=O | -0.1 | 7.6
CCOc1cc(CNS(=O)(=O)c2ccc3c(c2)CCCC(=O)N3)cc(OCC)c1OCC | 0.65 | 1
CC(=O)Nc1ccc(C(=O)CN2C(=O)NC(C)(c3ccc4c(c3)OCCO4)C2=O)c(F)c1 (centres undefined) | -0.35 | /
COc1cccc(CN(C)C(=O)COC(=O)c2cc(C)cc(C)c2)c1 | 0.25 | /
Nc1nc(N)c2nccnc2n1 | 0.9 | /
CCc1cc(Cl)n2c(nc3ccccc32)c1C#N | -0.1 | /
CCOC(=O)/C(C#N)=C/NC1CCN(Cc2ccccc2)CC1 | 0.6 | -0.02
COCCn1c(-c2ccccc2)n[nH]c1=S | 0.5 | /
NCCCCC(N)C(=O)NCC(=O)NC(Cc1cnc[nH]1)C(=O)NC(CCCCN)C(=O)O (centres undefined) | / | -0.52
COc1ccc(Sc2ccccc2C(=O)O)cc1 | 0.75 | 0.11
CCOC(=O)c1cc(CC)sc1/N=C/c1c(C)[nH]n(-c2ccc(C)cc2)c1=O | / | -0.085
COc1ccc(OCC(=O)N2c3ccc(F)cc3CCC2C)cc1 (centres undefined) | -0.55 | 0.095
CC(C)n1cc(-c2ccc(S(C)(=O)=O)cc2NC(=O)c2ccco2)cn1 | / | 0.6
C=Cn1cccc1C(=O)O | -1.2 | /
CN(CC(=O)Nc1ccc(N2CCOCC2)cc1)CC(=O)Nc1cccc(Br)c1 | -0.15 | /
COc1ccc(C2NC(C(=O)O)Cc3c2[nH]c2ccccc32)c(OC)c1 (centres undefined) | / | 1.8
C=CCNS(=O)(=O)c1cc2c3c(c1)CCN3C(=O)CC2 | -0.7 | /
O=C(CN1C(=O)S/C(=C\C=C\c2ccccc2)C1=O)N1CCOCC1 | -0.9 | /
Cc1ccnc(NS(=O)(=O)c2ccc(N)cc2)n1 | 0.95 | 0.1&-0.04
Cc1cc(C(=O)CSc2nnc(CN3CCCC3)o2)c(C)n1-c1ccccc1 | 0.2 | /
NNC(=S)Nc1ccc(Cl)cc1 | / | -0.045
O=C(C1c2ccccc2C(=O)N2CCc3ccccc3C12)N1CCN(c2ccccc2)CC1 (centres undefined) | -0.4 | 0.005
O=C(Cc1ncc(-c2ccccc2)cn1)c1ccccc1 | 1.2 | 0.16
C=CCn1c(SCc2ccc(C)cc2)nc(-c2ccccc2)c1-c1ccccc1 | / | -0.52
O=C(O)c1cccc(S(=O)(=O)NC2CC2)c1 | -0.7 | /
